Screening data: PubChem BioAssay, National Center for Advancing Translational Sciences (NCATS)
Methyltransferases = Primary Screen for Target Class Profiling of Small Molecule Inhibitors of Methyltransferases; calls only at 40 µM; 25,000 compounds, 3.9% hits; AID 1745853, 2022; purified enzyme, MTase-Glo SAH luminescence; active compounds read low; active = -50% or lower on at least one of six enzymes; inconclusive = the cases between; inactive = as a rule above -30% on all six;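 also: enzymes were COMT GAMT GNMT HNMT NNMT and PNMT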
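Each enzyme was reacted with SAM and its substrate, with compounds tested once at 40 uM; SAH formed was read by MTase-Glo luminescence.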
Calls only; i = inactive; ? = inconclusive; + = active, no number. % is scaled to controls: 0 for no effect and ±100 for the full control effect. An excerpt; the hit share may differ from the screen's.

SMILES	Methyltransferases
CCC[C@@H]1C[C@@H](C(=O)N[C@@H]([C@H]2O[C@H](SC)[C@H](O)[C@@H](O)[C@H]2O)[C@H](C)Cl)N(C)C1	?
O=C1c2cc(N3CCOCC3)nc(-c3cccc(CO)c3)c2CN1c1ccccc1	i
O=C(CCC1CCCN(Cc2ccc(-c3ccccc3)cc2)C1)N1CCOCC1 (stereo unspecified)	i
CN1C(=O)c2cc(C(=O)NCCc3ccc(Cl)cc3)nn2CC1(C)C(=O)NC1CCCC1 (stereo unspecified)	i
Cn1ncc2c(N3CCN(S(N)(=O)=O)CC3)nc(C3CCCC3)nc21	+
CC(C)CCn1c(=O)c2ccccc2n2c(SCc3ccccc3F)nnc12	i
CCN1CCC2(CCC1=O)CN(Cc1ccc(C)c3ccccc13)CCN2C (stereo unspecified)	i
COc1ccccc1CNC(=O)c1nn(CC2CC2)c2c1CNCC2	i
CCOC(=O)c1ccc(NC(=O)Cn2c(=O)oc3cc(S(=O)(=O)N4CCCC4)ccc32)cc1	i
Cc1cc2c(cc3n2CC(C)(C(=O)NC2CCCCCCC2)N(CCN2CCOCC2)C3=O)o1 (stereo unspecified)	i
Cc1ccc(NC(=O)Cn2nc3n(C4CC4)c(=O)c4ccc(C(=O)NC(C)C)cc4n3c2=O)c(C)c1	i
Cc1nn(CC(=O)N2CCC3(CCCN(C)CC3)CC2)c(=O)c2ccccc12	i
CCOC(=O)c1cc2n(n1)CC(C)(C(=O)NCc1ccccc1)N(Cc1cccc(Br)c1)C2=O (stereo unspecified)	i
CC(=O)OC1CCC2(C)C(CCC3(C)C2CC=C2C4C(C)C(C)CCC4(C)CCC23C)C1(C)C(=O)O (stereo unspecified)	i
Cc1cc(Cn2cnc3c2C[C@@H](C(=O)O)N(C(=O)C(c2ccccc2)c2ccccc2)C3)ccc1N	i
CCCn1c(=O)c2cc(F)ccc2n2c(SCc3ccc(F)cc3Cl)nnc12	i
O=C(O)CC1CCCCN(Cc2ccccc2)C1=O (stereo unspecified)	i
COc1ccc(CN2CCCC3(C2)CN(C)C(=O)O3)cc1C(=O)O (stereo unspecified)	i
CCCC(C(=O)OCCN(CC)CC)(c1ccccc1)c1ccccc1	i
Cc1ccc(C#N)c(NCc2cccnc2Oc2cccc(C(F)(F)F)c2)n1	i
COc1cccc(-c2ccc(NC(=O)C3=C(C(=O)O)CCC3)c(F)c2)c1	i
Cc1nc(N2CCN(C(=O)c3ccco3)CC2)c2c3c(sc2n1)CCCC3	?
O=C(O)c1cccc(C2CCCN(C(=O)c3c(F)cccc3Cl)C2)c1 (stereo unspecified)	i
COc1ccc(CCN2C(=O)c3cc4ccccc4n3CC2(C)C(=O)NCc2ccccc2OC)c(OC)c1 (stereo unspecified)	i
Cc1ccc(CNC(=O)C2(C)Cn3c(nc4ccccc43)C(=O)N2Cc2ccc(C)cc2)cc1 (stereo unspecified)	i
COc1ccc(C2(C(=O)N3CCC[C@H]3c3nc(-c4ccccc4Cl)no3)CC2)cc1	i
CCn1ccc(C(=O)N2CCCC(CO)CCNC(=O)CC2)n1 (stereo unspecified)	i
COc1ccc(N2C(=O)c3cc4ccccc4n3CC2(C)C(=O)NCCC(C)C)cc1OC (stereo unspecified)	i
CC(C)(C)C(=O)N1CC[C@@H](CC(=O)O)[C@@H](CCN2CCC[C@H]2C(N)=O)C1	i
CCC(CC)(NC(=O)C(C)C)C(=O)N[C@@H](CCCN=C(N)N)C(=O)NC1(C(=O)NC(c2ccc(F)cc2)c2ccc(F)cc2)CCCC1	i
COc1ccc(-c2cnc3n[nH]c(-c4ccccc4C)c3n2)cn1	i
CC(C)c1noc([C@@H]2C[C@H](NS(=O)(=O)Cc3ccccc3)CN2C)n1	i
O=C(CCc1cc(=O)[nH]o1)N[C@H](C1CCNCC1)C1CC(O)C1 (stereo partly specified)	?
O=C(CCc1ccc2c(c1)CN(C(=O)C1CC1)CCO2)NC1CCS(=O)(=O)C1 (stereo unspecified)	i
CC1(C(=O)NC2CCCCCC2)Cn2c(nc3ccccc32)C(=O)N1Cc1ccccn1 (stereo unspecified)	i
CCN(C(=O)Cn1c(=O)oc2cc(S(=O)(=O)N3CC(C)CC(C)C3)ccc21)c1ccccc1 (stereo unspecified)	i
C=C1C(=O)OC2C3=C(C)C(=O)CC3C(C)CC(O)C12 (stereo unspecified)	i
CCCn1c(=O)c2ccc(C(=O)NC(C)CC)cc2n2c(=O)n(CC(=O)Nc3ccccc3F)nc12 (stereo unspecified)	i
Cc1ccccc1CN1Cc2nc(-c3ccccc3)ccc2OCC1=O	i
CCCn1c(=O)c2ccc(Cl)cc2n2c(=O)n(Cc3ccc(F)cc3Cl)nc12	i
COC(=O)c1ncn2c1C(=O)N(Cc1ccc(C)cc1)C(C)(C(=O)NC1CCCCCC1)C2 (stereo unspecified)	i
COc1cccc(S(=O)(=O)N2CCC(Cc3nncn3C(C)C)CC2)c1	i
CC(C)Cc1nc(CN2CCn3nc(C(O)c4ccnn4C)cc3C2)no1 (stereo unspecified)	i
COc1cc(Br)c(S(=O)(=O)Nc2ccc(Cl)c(O[C@@H]3CCN(C)C3)c2)cc1OC	i
Cc1nnsc1C(=O)Nc1ccc(-n2nc(C(F)(F)F)cc2C(F)(F)F)cc1	i
Cc1ccc(N2CCN(S(=O)(=O)N3CCCCC3)CC2)c(C)c1	i
CN(CCC1CCOCC1)C(=O)c1ccc(OC2CCN(C(=O)C3CC3)CC2)cc1	i
CCCN1C(=O)c2c(C(=O)NCCc3ccc(C)cc3)ncn2CC1(C)C(=O)NCc1ccc(OC)cc1 (stereo unspecified)	i
Cc1ccc(C(=O)Cn2nc3n(C(C)C)c(=O)c4ccc(C(=O)NC5CCCCC5)cc4n3c2=O)c(C)c1	i
CC(C)(C)c1cc(Br)cc([C@H](CC(=O)O)NC(=O)CNC(=O)c2cc(O)cc(NC3=NCC(O)CN3)c2)c1 (stereo partly specified)	i

More structures.
SMILES	Methyltransferases
Cc1cc(Cn2cc3c4c(cccc42)[C@H](CC(C)C)N[C@H](C(=O)NC2CCCC2)C3)no1	i
CN(Cc1cn(C)c2ccccc12)C1CCc2nn(CC3CC3)c(=O)n2CC1 (stereo unspecified)	i
COC(=O)c1ccc2c(c1)nc1n2[C@@H](CNC(=O)CC(C)(C)C)COC1	i
CCc1cc2c(cc3n2CC(C)(C(=O)NC2CCC(C)CC2)N(CCC(C)C)C3=O)s1 (stereo unspecified)	i
COc1ccc(CNC(=O)C[C@@H]2C[C@H]3O[C@H](CNC4CCNCC4)[C@@H](O)[C@H]3O2)cc1	i
CC(=O)Nc1c2n(c3ccccc13)CC(C)(C(=O)NCCC(C)C)N(Cc1ccccc1C)C2=O (stereo unspecified)	i
OC[C@H]1O[C@@H](Oc2ccc3c(c2)OC[C@H]2c4cc5c(cc4O[C@@H]32)OCO5)[C@H](O)[C@@H](O)[C@@H]1O	i
CC(C)CCn1c(=O)c2ccccc2n2c(SCc3ccccc3)nnc12	i
CC(C)c1cc(C(=O)N2CC[C@H](NC(=O)C3CC3)C2)n[nH]1	?
CC1(C)O[C@]23C[C@H]1C[C@H](OC(=O)c1ccoc1)[C@]2(C)[C@@H](OC(=O)c1ccoc1)CCC3(C)O (stereo partly specified)	?
CCCC1c2cccn2CCN1C(=O)Nc1cc(C)ccc1C (stereo unspecified)	i
C=CCc1ccccc1OCCN(C)Cc1cc2ccc(F)cc2[nH]c1=O	i
O=C(Cc1ccccn1)NCCNC(=O)c1cccc(-c2ccc(C(F)(F)F)cc2)c1	i
O=C(C1CCN(c2cnn(Cc3ccccc3)c(=O)c2)C1)N1CCCC1 (stereo unspecified)	i
O=C(Cn1c(=O)oc2cc(S(=O)(=O)NCc3ccccc3)ccc21)NCc1ccccc1Cl	i
COC(=O)c1ccc2c(=O)[nH]c3c(C(=O)NCCC(C)C)sc(=S)n3c2c1	i
COc1ccc(CCN2C(=O)c3cc4ccccc4n3CC2(C)C(=O)NC2CCCC2)cc1OC (stereo unspecified)	i
c1ccc(C2(c3ccccc3)CCCN(Cc3cscn3)C2)cc1	i
CN(Cc1ccccc1)C(=O)CN(C)S(=O)(=O)c1ccc2[nH]c3c(c2c1)CCCC3	i
Fc1ccc(-c2noc(-c3ncn4c3COC(c3ccccc3Cl)C4)n2)cc1 (stereo unspecified)	i
CCOC(=O)c1cc2n(n1)CC(C)(C(=O)NCCOC)N(c1cc(C)cc(C)c1)C2=O (stereo unspecified)	i
CSc1ncc(CN2CCC(n3nccc3NC(=O)Cc3ccccc3)CC2)cn1	i
CC(=O)OCC(=O)Nc1cc(C#N)cc(NC(=O)COC(C)=O)c1Cl	i
CCN1C(=O)c2cc(C(=O)NCCCOC(C)C)nn2CC1(C)C(=O)NC1CCCC1 (stereo unspecified)	i
COc1cccc(NC(=O)N2CCn3cccc3C2C(C)C)c1 (stereo unspecified)	i
O=C(CCn1ccc2cc(S(=O)(=O)N3CCCCC3)ccc21)N1CCN(C(=O)c2ccco2)CC1	i
C[C@H]1CC[C@@]2(OC1)O[C@H]1CC3C4CC=C5C[C@H](O)C[C@@H](O[C@@H]6O[C@@H](C)[C@H](O)[C@@H](O)[C@H]6O[C@@H]6O[C@@H](C)[C@H](O)[C@@H](O)[C@H]6O)[C@]5(C)C4CC[C@]3(C)[C@H]1[C@@H]2C (stereo partly specified)	i
Cc1ccc(S(=O)(=O)N2CCCC(CNC(=O)c3cccs3)C2)cc1 (stereo unspecified)	i
CCN(CC)C(=O)Cn1c(=O)oc2cc(S(=O)(=O)N3CC(C)CC(C)C3)ccc21 (stereo unspecified)	i
Cc1nn(C)c(C)c1-c1nc2cc(S(=O)(=O)N3CCCC3)ccc2n1C	i
CCCn1c(=O)c2ccccc2n2c(=O)n(CC(=O)NCc3ccccc3)nc12	i
O=C(CCn1ccc2cc(S(=O)(=O)N3CCCCC3)ccc21)NCc1ccccc1	i
COCCNC(=O)C[C@@H]1O[C@H](CNS(=O)(=O)c2ccc(C)cc2)[C@@H](O)[C@H]1O	i
CN(C)Cc1ccc(-c2cnn3c(-c4cccc(NC(=O)c5cccc(C(F)(F)F)c5)c4)ccnc23)cc1	?
Cc1cc(C)n(-c2ccc(C(=O)N[C@H]3C[C@H]4C(=O)NCC(=O)N4C3)cc2)n1	i
CC(C)CCNC(=O)C1(C)Cn2nc(C(=O)N3CCOCC3)cc2C(=O)N1C (stereo unspecified)	i
COC(=O)c1ncn2c1C(=O)N(CCc1cccs1)C(C)(C(=O)NC1CCCC1)C2 (stereo unspecified)	i
COc1ccc(-c2cc3n(n2)CC(C)(C(=O)NCc2ccccc2OC)N(c2ccc(C)cc2C)C3=O)cc1 (stereo unspecified)	i
CC(C)C(NC(=O)c1ccc2ccccc2n1)C(=O)NC(CC(=O)O)C(=O)COc1c(F)cccc1F (stereo unspecified)	i
Cc1nc2ncccn2c1C(=O)N1CCC2(CCCN(C)C2=O)C1 (stereo unspecified)	i
O=C(Nc1cccc(Nc2nccc(Nc3cccc(C(F)(F)F)c3)n2)c1)C1CC1	?
CCCNS(=O)(=O)c1ccc(Cl)c(-c2nnc(-c3ccccc3)o2)c1	i
CCN(CC)c1ncccc1CNC(=O)Nc1cccc(OC)c1	i
Cc1ccc(NC(=O)COc2ccc(-c3nnc4n3CCCC4)cc2)cc1C	i
Cc1noc2c(NC3CCC(O)CC3)cc(-c3cccnc3)nc12 (stereo unspecified)	i
Cc1ccc(Cn2c(=O)c3ccc(C(=O)NC4CCCC4)cc3n3c(=O)[nH]nc23)cc1	i
CCC(C)NC(=O)c1ccc2c(=O)n(C(C)C)c3nn(Cc4cccc(F)c4)c(=O)n3c2c1 (stereo unspecified)	i
COc1ccc(C(=O)CC(=O)O)c2c1C=CC(C)(C)O2	i
Cc1nn(-c2ccccc2)c2c1C(C(C)C)N(C1CN([S+](=O)([O-])c3cccc(C(F)(F)F)c3)C1)C2=O (stereo unspecified)	i
CCCCNC(=O)Cn1c(=O)oc2cc(S(=O)(=O)N3CC(C)CC(C)C3)ccc21 (stereo unspecified)	i

The listing continues.
SMILES	Methyltransferases
CN1Cc2ccc(C(=O)Nc3ccc4cn[nH]c4c3)cc2OCC1=O	i
Cc1ccc(NC(=O)CSc2nnc3n(C)c(=O)c4ccc(C(=O)NC5CCCC5)cc4n23)c(C)c1	i
CCC(C)NC(=O)c1ccc2c(=O)n(C)c3nn(Cc4ccccc4)c(=O)n3c2c1 (stereo unspecified)	i
COCC(=O)N(C1CCOCC1)C1CCN(C(=O)Cc2ccc(Cl)cc2)CC1	i
